Six1-Eya2 inh = inhibitors of human Six1/Eya2 interaction. Q15475+O00167. AlphaScreen GST-Six1/His-Eya2 binding, biochemical; stronger effect = lower value; control for the full effect not named in the record. activity change, % (test concentration not listed). 360,000 tested, 0.56% active. AID 651725; in the data active = activity change below about -65%; inconclusive = about -30% to -65%; inactive = above about -30%; further: on the % scale 0 is the no-effect control and ±100 the full control effect; compound concentration not given in the record
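Six1/Eya2 binding was read as AlphaScreen signal after compounds were pinned into GST-Six1 plus His-tagged Eya2 (5X stock 250/500 nM) in pH 8.0 Tris/NaCl/TCEP buffer, beads added, then incubated 1 h, 37 C, dark.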
TRPML1 ag = human mucolipin-1 channel agonism. Q9GZU1. TRPML1-expressing cells, Ca2+ dye fluorescence, FDSS; host cell line not named in the record; reference of the full effect not given here. activation, % (concentration not given with the values). 410,000 tested, 0.12% active. AID 624414; in the data active = activation above about 50%; inconclusive = about 30% to 50%; inactive = below about 30%; further: 0% is about no effect; the text of the record puts the active cut at 80%
Target sequence (Q9GZU1 whole entry, looked up): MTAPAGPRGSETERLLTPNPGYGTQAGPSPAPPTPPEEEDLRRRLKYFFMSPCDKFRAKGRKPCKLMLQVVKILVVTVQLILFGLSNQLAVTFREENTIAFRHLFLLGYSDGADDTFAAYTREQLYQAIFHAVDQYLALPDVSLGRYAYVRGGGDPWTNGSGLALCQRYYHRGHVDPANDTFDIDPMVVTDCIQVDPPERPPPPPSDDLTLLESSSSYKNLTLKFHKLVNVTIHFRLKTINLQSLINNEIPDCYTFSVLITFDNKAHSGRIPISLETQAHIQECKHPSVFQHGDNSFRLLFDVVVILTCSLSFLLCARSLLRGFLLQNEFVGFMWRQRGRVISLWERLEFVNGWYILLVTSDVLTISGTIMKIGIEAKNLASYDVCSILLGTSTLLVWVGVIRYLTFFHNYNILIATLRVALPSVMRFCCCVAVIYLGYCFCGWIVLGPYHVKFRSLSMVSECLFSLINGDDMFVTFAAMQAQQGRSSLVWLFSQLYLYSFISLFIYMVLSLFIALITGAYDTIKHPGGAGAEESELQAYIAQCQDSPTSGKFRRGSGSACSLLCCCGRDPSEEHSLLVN
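Agonist activity was taken from a 110 s kinetic Ca2+ dye read on the FDSS after pinning compounds onto TRPML1-DL cells. The cells were seeded at 1,500/well with Tet inducer, incubated about 16 h, then dye-loaded at room temperature.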
D2 ag = agonists of human D2 dopamine receptor (beta-arrestin); DiscoveRx PathHunter D2 beta-arrestin, luminescence, 90 min; 100% = 57 uM dopamine signal; activation, % (concentration not given with the values); 360,000 tested, 0.084% active; in the data active = activation above about 40%; inconclusive = about 15% to 40%; inactive = below about 15%; further: compound concentration not given in the record; the text of the record calls up to 30% inactive
Target sequence (P14416 whole entry, looked up): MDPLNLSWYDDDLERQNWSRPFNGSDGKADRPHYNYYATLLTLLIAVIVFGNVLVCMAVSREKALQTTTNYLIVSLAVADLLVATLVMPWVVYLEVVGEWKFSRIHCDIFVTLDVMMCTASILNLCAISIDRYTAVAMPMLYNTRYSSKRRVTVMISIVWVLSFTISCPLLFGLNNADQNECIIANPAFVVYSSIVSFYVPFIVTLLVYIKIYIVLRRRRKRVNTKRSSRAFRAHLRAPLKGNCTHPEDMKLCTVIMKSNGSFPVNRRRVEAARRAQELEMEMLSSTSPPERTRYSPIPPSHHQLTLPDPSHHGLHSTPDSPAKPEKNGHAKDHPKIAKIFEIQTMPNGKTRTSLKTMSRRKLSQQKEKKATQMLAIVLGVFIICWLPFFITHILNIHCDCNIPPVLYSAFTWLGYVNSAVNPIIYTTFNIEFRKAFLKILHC
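DiscoveRx PathHunter D2 beta-arrestin cells (2,100/well) attached overnight, then compound-stimulated 90 min at 37 C in HBSS/10 mM HEPES/0.1% Tween-20 buffer; beta-galactosidase complementation read by luminescence after 1 h at ambient temperature. Dopamine 57 uM final (EC100) as control.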
CtBP-E1A blk = blocks the CtBP interaction with E1A. AlphaScreen GST-E1A/His-CtBP binding, 1536-well; stronger effect = lower value; control for the full effect not named in the record. activity change, % (test concentration not listed). 340,000 tested, 0.49% active. AID 651724; in the data active means activity change below about -65%; inconclusive means about -30% to -65%; inactive means above about -30%; further: on the % scale 0 is the no-effect control and ±100 the full control effect; compound concentration not given in the record
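Homogeneous bead-based format: GST-tagged E1A captured on glutathione donor beads, His-tagged CtBP on nickel acceptor beads; compounds precede bead addition by 2 h at 37 °C.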
PINK1 expr mod = changes PINK1 expression; PINK1 immunofluorescence, high-content cytometry, 24 h; 410,000 tested, 0.2% active; Potency, µM (doses to about 76.6 µM), for inactives: at the top dose activation (PINK1 increase), usual class: activators; AID 624263; active = well fitted activation curve with a large enough effect; inconclusive = small, poorly fitted or top-dose-only effect; inactive = flat fitted curve, though single readings scatter; cell line not stated here;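 further: potency means the concentration at half of the fitted maximal effect; % of control where 0% means no effect; nearly all actives have a fitted effect of over 65% in size; a mitochondrial uncoupler was the plate control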
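Compound titrations (5 concentrations, 24 h) on a stable cell line; DMSO and CCCP controls. Endpoint: fixed-cell PINK1 immunofluorescence with mitochondrial, cell and nuclear markers, scanned by microplate cytometer.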
TRPML1 inh = human mucolipin-1 channel inhibition; TRPML1-inducible cells, Ca2+ dye fluorescence, FDSS; stronger effect = lower value; inhibition of EC80 agonist-evoked calcium signal; activity change, negative = inhibition, % (test concentration not listed); Q9GZU1; 390,000 tested, 0.02% active; in the data active means activity change below about -50%; inconclusive means about -30% to -50%; inactive means above about -30%;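 further: stimulus is agonist 54-4 at its EC80 concentration; on the % scale 0 is the no-effect control and ±100 the full control effect; compound concentration not given in the record; the text of the record puts the active cut at -80%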
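Calcium fluorescence in TRPML1-DL cells induced overnight with Tet: a 110 s read after compound pin addition, then a 110 s antagonist read after challenge with 54-4 at 4 uM final (EC80).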
Starred values were filed as active, the others as inactive; ? = inconclusive; / = no result given; & = joins results of further samples; [ ] = another dose, or the depositor's remark.

SMILES	Six1-Eya2 inh	TRPML1 ag	D2 ag	CtBP-E1A blk	PINK1 expr mod	TRPML1 inh
O=S(=O)(Nc1ccc(-n2cnnn2)cc1)c1ccccc1F	6.7	0.6	2.1	-0.4	1.8%	-18.5
Cc1cc(C)nc(SCCN(C)C)n1	4.7	0.2	-3.3	12.2	-0.1%	5.1
N#C/C(=C(/O)CO/N=C/c1ccccc1Cl)c1nc2ccccc2[nH]1	0.4	1.1	2.8	/	0.5%	19.1
CCCCc1cc(=O)oc2c(C)c(OCC(=O)N3CCC(C(N)=O)CC3)ccc12	4.8	0.4	-1.0	3.7	-0.5%	-5.9
O=C(OCC(=O)N1CCN(C(=O)c2ccco2)CC1)c1ccccc1	7.1	-1.0	-1.7	-8.0	1.1%	-13.5
O=C(Cc1ccc2c(c1)OCCO2)N1CCN(S(=O)(=O)c2ccccc2C(F)(F)F)CC1	-0.5	3.4	-4.5	8.5	-1.1%	24.9
C/C=C/c1ccc(OCCn2cncn2)c(OC)c1	0.2	-0.6	-1.8	-0.7	0.2%	24.5
COC(=O)C(Cc1cncn1COCc1ccccc1)NC(=O)OC(C)(C)C (stereo not drawn)	-1.3	0.8	-1.0	-15.1	-4.2%	11.9
COc1ccc2[nH]c(=O)c(CN(CCCN3CCOCC3)C(=O)NCc3ccccc3)cc2c1	5.1	0.8	-2.1	3.1	1.8%	10.7
Cc1ccc(C(=O)CCC(=O)OCC(=O)N(CC(C)C)c2c(N)n(Cc3ccccc3)c(=O)[nH]c2=O)cc1	17.5	0.0	-0.3	-22.3	1.7%	12.8
CCN(c1ccc(C)cc1)S(=O)(=O)c1nnc(NC(=O)c2ccco2)s1	8.0	-1.0	2.8	0.0	-0.8%	1.1
Cc1c(C(=O)CN2CCSCC2)c2ccccc2n1C	-1.3	-0.1	-2.3	0.7	0.2%	-5.7
Cc1c(-c2nnnn2-c2ccc(F)cc2)cnc2cc3c(cc12)OCO3	-5.0	-0.5	-0.6	6.3	3.3%	2.1
C=CCSc1nc(N)cc(=O)[nH]1	0.9	-0.5	-1.8	-9.8	0.0%	-0.1
C=CCC[C@H](CCCCC)OC(=O)/C=C/[C@H](O)[C@@H](O)C[C@@H](O)CC=C	9.7	-1.3	/	-1.6	4.8%	/
COc1cccc(C(C)NC(=O)c2c(F)cccc2Cl)c1 (stereo not drawn)	-2.2	2.6	-0.1	3.1	0.4%	-8.7
O=C(CSCc1ccc(Br)cc1)Nc1ccccc1C(=O)N1CCOCC1	3.6	0.3	-6.5	2.3	3.2%	9.6
COc1ccc(C(=O)N/N=C/c2ccc(OC(=O)c3cccc4ccccc34)c([N+](=O)[O-])c2)cc1	-3.4	-0.2	0.4	3.6	6.1%	7.8
CCN(CC(=O)Nc1ccc(NC(C)=O)cc1)C(=O)COc1ccccc1-c1ccccc1	-8.0	-0.1	-6.2	7.9	5.6%	8.9
C=CCn1c(SCC(=O)NCCc2ccccc2)nnc1C(C)NC(=O)c1cccs1 (stereo not drawn)	-0.2	-0.1	-2.8	4.2	-0.1%[38.3 µM]	3.8
Cc1cc(NC(=O)CN2CCN(S(=O)(=O)c3ccc4ccccc4c3)CC2)no1	-16.9	0.6	-4.3	13.4	-0.2%	43.1
O=C1CN(S(=O)(=O)c2ccccc2)c2ccccc2N1	1.8	0.2	-0.6	-8.1	0.8%	2.2
COc1ccc(-c2ccc(=O)n(CC(=O)Nc3nnc(C(C)C)s3)n2)cc1OC	-0.6	-0.7	-1.2	10.2	-4.4%	0.6
NS(=O)(=O)c1ccc(N/N=C/c2ccc3c(c2)OCO3)c([N+](=O)[O-])c1	-0.6	-0.6	-1.1	-0.3	0.5%	3.7
O=C(O)[C@H](Cc1c[nH]c2ccccc12)Nc1ncccc1[N+](=O)[O-]	-2.1	-0.4	-5.9	/	-0.1%	7.5
Cc1ccc(C2c3c(-c4ccccc4O)n[nH]c3C(=O)N2CCCO)cc1 (stereo not drawn)	/	1.0	/	/	2.7%	4.9
Cc1ccc(CSC2=NCCN2C(=O)c2ccc([N+](=O)[O-])cc2)cc1	5.8	-0.8	-4.0	3.3	0.7%	0.9
Cc1ccc(C(=O)Nc2cc(-c3cn4cccnc4n3)ccc2C)cc1C	/	-0.9	/	/	0.7%	-12.7
COc1cc(C2=NOC(C(=O)N3CCN(c4ccc(F)cc4)CC3)C2)cc(OC)c1OC (stereo not drawn)	-9.9	1.7	-0.4	-14.8	-2.4%[38.3 µM]	-5.0
Cc1[nH]nc2nc(SCC(=O)NC3CCCCC3)n(-c3ccc(Br)cc3)c(=N)c12	-2.3	-0.1	-2.1	-2.1	0.5%	7.8
COc1cccc(NS(=O)(=O)c2ccc3[nH]cc(C(=O)NC4CC4)c(=O)c3c2)c1	?	-1.3	2.9	4.0	4.0%	-3.7
COc1ccc(-c2ccc(C(=O)NCc3ccc(C(F)(F)F)cc3)c3occc23)c(C)c1	-0.3	1.2	-1.7	-8.8	3.3%	/
COc1ccc(CCC(=O)NCCc2nc3ccccc3[nH]2)cc1	3.0	-0.4	1.2	-0.7	-0.8%	-24.6
O=C(CC(Nc1ccccc1Cl)C(=O)O)c1ccccc1 (stereo not drawn)	-9.6	-0.2	-0.3	5.1	3.4%	-3.2
COc1ccccc1NC(=O)CSc1oc(-c2cccs2)nc1S(=O)(=O)c1ccc(C)cc1	/	0.6	/	/	-0.1%	16.7
COc1ccc(N=C2C(=S)N(c3ccc(OC)cc3)C(=NS(=O)(=O)c3ccccc3)N2c2ccccc2)cc1	-20.4	0.3	2.8	16.7	0.1%	-4.2
CC(C)Oc1cccc(C(=O)C2CCCN(C(=O)c3ccccn3)C2)c1 (stereo not drawn)	-3.8	-1.1	-2.4	-1.9	4.8%	-8.3
Cc1cc(NC(=O)CN(C)CC(=O)Nc2ccc(F)c(F)c2F)no1	5.8	0.4	-5.6	8.1	3.8%	0.9
Nc1nncn1C(=O)c1cc(Br)ccc1Cl	1.1	0.8	0.4	-2.1	0.6%	2.2
COc1ccccc1N1C(=O)C2C(C(=O)c3ccccc3)=NN(c3ccccc3)C2C1=O (stereo not drawn)	49.2	18.5	-4.1	5.9	-0.7%	-10.0

Arranged by SMILES length (highest first): some entries from above
SMILES	Six1-Eya2 inh	TRPML1 ag	D2 ag	CtBP-E1A blk	PINK1 expr mod	TRPML1 inh
COc1ccc(N=C2C(=S)N(c3ccc(OC)cc3)C(=NS(=O)(=O)c3ccccc3)N2c2ccccc2)cc1	-20.4	0.3	2.8	16.7	0.1%	-4.2
Cc1cc(NC(=O)CN(C)CC(=O)Nc2ccc(F)c(F)c2F)no1	5.8	0.4	-5.6	8.1	3.8%	0.9
O=C1CN(S(=O)(=O)c2ccccc2)c2ccccc2N1	1.8	0.2	-0.6	-8.1	0.8%	2.2
Nc1nncn1C(=O)c1cc(Br)ccc1Cl	1.1	0.8	0.4	-2.1	0.6%	2.2

Going on with the list:
SMILES	Six1-Eya2 inh	TRPML1 ag	D2 ag	CtBP-E1A blk	PINK1 expr mod	TRPML1 inh
Cc1ccc2[nH]c3c(=O)n(CC(=O)N4CCN(C)CC4)ncc3c2c1	5.0	1.3	-0.9	/	-2.0%	-9.1
CCCn1c(=O)c2ccccc2n2c(SCC(N)=O)nnc12	-3.8	-0.5	1.3	-11.1	0.2%	-8.7
O=C1CS/C(=N\C(=O)N2c3ccccc3Sc3ccccc32)N1	-1.2	-0.2	5.1	-0.2	-1.0%	-19.8
CCN(C(=O)COc1cccnc1[N+](=O)[O-])C1CCS(=O)(=O)C1 (stereo not drawn)	0.4	-0.1	-1.6	1.9	1.1%	17.6
O=C(NN1CCOCC1)c1cc(S(=O)(=O)Nc2cccc(C(F)(F)F)c2)ccc1Cl	4.8	-0.5	1.7	5.2	1.0%	-11.3
CCN(CC)C(=O)Nc1cnc2ccccc2c1	-3.4	-0.7	-2.5	3.1	-0.9%	-4.1
Cc1ccc(O)c(C2=NNC(O)(C(F)(F)F)C2)c1 (stereo not drawn)	0.1	-0.2	2.3	-2.6	4.6%	1.0
CCN(CC)CCCN(C(=O)c1ccco1)c1nc(-c2ccc(C)cc2)cs1	-26.6	0.6	-8.5	0.4	-1.1%	29.2
COc1ccc(OC)c(-c2cc(C(=O)Nc3c(C)n(C)n(-c4ccccc4)c3=O)no2)c1	-2.5	-0.3	0.3	-10.7	5.9%[38.3 µM]	-7.2
COc1ccc(N(CC(=O)N2CCN(c3ccc(F)cc3)CC2)S(=O)(=O)c2c(C)noc2C)cc1	-6.4	-0.9&-1.2	-4.9	-5.8	0.4%&3.7%	-5.4&-17.3
O=C(CS(=O)(=O)c1cn(CC(=O)N2CCOCC2)c2ccccc12)NCc1ccc(F)cc1	3.7	-0.5	-0.8	3.9	1.0%	6.4
CC(=O)OCC(=O)N1CCN(c2ccc([N+](=O)[O-])cc2)CC1	-12.7	-0.5	-0.8	-5.2	-1.6%	-13.5
Cc1ccc(N(C(=O)c2csnn2)C(C(=O)NC2CCCCC2)c2ccco2)cc1 (stereo not drawn)	1.4	-0.3	-2.4	-20.7	-0.7%	-17.4
Cc1c(NC(=O)C(C)Sc2nc(N)cc(=O)[nH]2)c(=O)n(-c2ccccc2)n1C (stereo not drawn)	-0.1	-0.1	-3.0	-1.7	-0.9%	9.2
CCO/C(C)=N/Oc1cncnc1	1.3	-0.7	-4.6	5.5	-0.4%	/
CCN(CC)S(=O)(=O)c1ccc(NC2=NS(=O)(=O)c3ccccc32)cc1	3.3	-0.3	1.3	17.6	-3.9%[38.3 µM]	-11.5
CC(=C/c1ccccc1)/C=N/Nc1nc(N2CCCCC2)nc(N2CCCCC2)n1	-1.5	-0.6	-0.2	-0.6	-1.5%	0.5
O=C(NC1CCN(C(=O)Nc2cccc(Cl)c2)CC1)C1CCCCC1	5.2	-0.2	-1.6	-7.7	7.3%	-3.6
CC(=O)C1=CCC(c2ccc(Cl)cc2)N(S(=O)(=O)c2ccccc2)C1 (stereo not drawn)	7.7	0.6	-4.4	4.3	1.2%	14.8
O=C1C2CCCN2C(=O)N1CCCCN1CCN(c2ccc(F)cc2)CC1 (stereo not drawn)	4.5	-0.5	-0.1	6.3	6.4%	4.5
CCOC(=O)c1cnc2ccc(OC)cc2c1Nc1ccc(OCc2ccccc2Cl)cc1	/	0.7	/	/	5.6%	18.6
CCOC(=O)C1CCN(C(=O)c2cccc(S(=O)(=O)N(CC)c3ccccc3)c2)CC1	3.1	3.4	0.5	0.0	1.1%	7.0
CCN(CC)S(=O)(=O)c1ccc(NC2c3ccccc3C(=O)N2Cc2ccc3c(c2)OCO3)cc1 (stereo not drawn)	-10.2	1.3	7.1	-19.6	-1.1%	-6.3
COc1cc([N+](=O)[O-])c2ncsc2c1	2.1	0.3	-1.2	2.0	2.6%	-6.6
CC(C)(C)c1ccc(/C=C2/SC(N3CCCC3)=NC2=O)cc1	-0.8	1.9	-2.2	1.2	1.3%	15.5
Cc1ccc2nc(N/C(=N/S(=O)(=O)c3cccs3)c3ccccc3Cl)sc2c1	2.3	0.1	-3.9	-18.3	-0.4%	3.2
